High-throughput results as filed in PubChem BioAssay.
Mtb bLac sens: beta-lactam sensitization of Mtb H37Rv; M. tuberculosis H37Rv growth with meropenem, percent inhibition; hits of this screen are not shown here; inhibition, % at 25 µM; actives 0.27% (n = 330,000);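 active means about 74% or more and at least 40 points above the plate without the antibiotic, then above 30% in a dose series; inconclusive means first-round hits that could not be retested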;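 further: growth measured after seven days incubation then overnight dye step; 0% = bacteria only wells and 100% = bacteria with antibiotic; twin plates without the antibiotic show which effects depend on it; some results filed as inactive read as strong as hits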
RecA intein inh: inhibitors of M. tuberculosis RecA intein splicing; P9WHJ3; cell-free RecA intein splicing, fluorescence; inhibition, %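 (about 9 µM by stock and volumes)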; actives 0.75% (n = 290,000); AID 2221; in the data active means inhibition above about 30%; inconclusive means no clear call, values can overlap the other calls;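 further: 0% = vehicle wells and 100% = reference inhibitor control wells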
Target sequence (P9WHJ3 whole entry, looked up): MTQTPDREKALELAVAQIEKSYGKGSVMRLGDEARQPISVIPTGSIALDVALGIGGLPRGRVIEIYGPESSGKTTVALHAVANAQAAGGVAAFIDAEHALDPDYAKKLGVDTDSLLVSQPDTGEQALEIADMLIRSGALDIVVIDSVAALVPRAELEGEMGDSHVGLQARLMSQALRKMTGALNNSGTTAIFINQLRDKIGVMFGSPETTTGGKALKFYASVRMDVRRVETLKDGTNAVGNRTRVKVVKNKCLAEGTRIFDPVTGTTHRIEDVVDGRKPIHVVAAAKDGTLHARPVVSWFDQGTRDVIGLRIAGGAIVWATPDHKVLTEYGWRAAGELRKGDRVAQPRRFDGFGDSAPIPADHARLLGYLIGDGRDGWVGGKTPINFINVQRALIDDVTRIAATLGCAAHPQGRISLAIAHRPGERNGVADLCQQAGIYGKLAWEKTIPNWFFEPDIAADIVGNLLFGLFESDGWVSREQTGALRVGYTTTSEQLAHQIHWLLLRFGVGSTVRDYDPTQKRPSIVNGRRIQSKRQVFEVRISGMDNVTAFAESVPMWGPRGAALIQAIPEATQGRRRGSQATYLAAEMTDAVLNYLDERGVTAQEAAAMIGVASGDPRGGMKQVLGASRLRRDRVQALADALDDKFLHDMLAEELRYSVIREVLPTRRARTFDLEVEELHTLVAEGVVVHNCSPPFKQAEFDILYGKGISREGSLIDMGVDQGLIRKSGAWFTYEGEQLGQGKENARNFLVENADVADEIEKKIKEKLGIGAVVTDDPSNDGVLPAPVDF
Mtb growth: M. tuberculosis H37Rv growth inhibitors, H37Rv strain (AID 1626). M. tuberculosis H37Rv growth inhibition; higher % means a stronger effect. inhibition, % at 10 µM, or IC50 in µM where a hit was titrated. actives 0.95% (n = 220,000);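 active means confirmed in a dose series; inconclusive means inhibition above 80% but not taken into the dose series; inactive means below 80% or under 30% at every dose of the series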;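 further: bacteria incubated seven days before Alamar blue readout; 0% = bacteria only wells and 100% = bacteria with antibiotic wells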
Arbovirus anti: arbovirus infection inhibition; inhibition, % at 10 µM; actives 0.37% (n = 200,000); arbovirus infection cell-based antiviral screen; AID 1251;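 active means inhibition from about 30%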;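 further: bluetongue infection of BSR cells; cell survival read as ATP light after 72 h; 0% = infected wells without compound and 100% = uninfected wells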
YopH PTP inh: blocks Yersinia enterocolitica YopH tyrosine phosphatase; fluorescence Ex485/Em525; inhibition, %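 (about 10 µM by stock and volumes)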; actives 0.16% (n = 140,000);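 active means inhibition of 50% or more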;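 further: controls were vehicle for no effect and minimum signal wells for full effect; inactives centre near -20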
Arbovirus anti repeat: recorded beside Arbovirus anti, whose call it bears; inhibition, %; measured here: 10K subset replicate screen; many hits read low in the repeat;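 first of two repeat runs on a subset; 0% = infected and 100% = uninfected wells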
* marks the source's active call; other numbers are inactive results; ? = inconclusive; . = no result given.

SMILES | Mtb bLac sens | RecA intein inh | Mtb growth | Arbovirus anti | YopH PTP inh | others
Cc1cccc(N2CC(C(=O)Nc3ccc(S(=O)(=O)N4CCOCC4)cc3)CC2=O)c1C (stereo not given) | 0.4 | -0.3 | . | . | .
CC(=O)c1ccc(NC(=S)Nc2ccc(Br)c(Cl)c2)cc1 | 93.9 | 6.4 | ? | -34.6 | .
CCn1cc(C(=O)OCC(=O)N(C)C2CCS(=O)(=O)C2)c(=O)c2ccc(C)nc21 (stereo not given) | -15.3 | . | -2.6% | 0.6 | -18.0
Cc1ccc(C)c(S(=O)(=O)NCCCN2CCOCC2)c1 | 3.6 | -0.7 | -2.4% | 6.8 | .
Cc1ccc(NC(=O)C2=NNC(=O)CC2)cc1F | -2.6 | -0.5 | . | . | .
O=C(N=C1SC2CS(=O)(=O)CC2N1c1ccc(Cl)cc1Cl)C1CC1 (stereo not given) | -0.7 | 0.5 | . | . | .
COc1ccc(-c2nn(-c3ccccc3)cc2C2CC(c3cccs3)=NN2C(=O)CCC(=O)O)cc1 (stereo not given) | -4.6 | . | -0.7% | . | .
O=C(NCC(c1ccc(F)cc1)N1CCOCC1)c1ccc(Br)o1 (stereo not given) | -0.4 | 0.8 | -12.9% | 8.0 | -4.9 | Arbovirus anti repeat=12.6
CCOC(=O)C1=C(C)NC(=O)NC1/C=C/c1ccccc1OC (stereo not given) | 1.1 | -1.1 | 9.2% | -0.4 | .
Fc1cccc(F)c1-c1nc2c(s1)CCc1onc(-c3ccc(Br)cc3)c1-2 | 16.5 | -1.6 | -2.6% | . | .

The closing three entries of the part above come first, to join the parts:
SMILES | Mtb bLac sens | RecA intein inh | Mtb growth | Arbovirus anti | YopH PTP inh | others
O=C(NCC(c1ccc(F)cc1)N1CCOCC1)c1ccc(Br)o1 (stereo not given) | -0.4 | 0.8 | -12.9% | 8.0 | -4.9 | Arbovirus anti repeat=12.6
CCOC(=O)C1=C(C)NC(=O)NC1/C=C/c1ccccc1OC (stereo not given) | 1.1 | -1.1 | 9.2% | -0.4 | .
Fc1cccc(F)c1-c1nc2c(s1)CCc1onc(-c3ccc(Br)cc3)c1-2 | 16.5 | -1.6 | -2.6% | . | .
O=C(NCc1ccc(F)cc1)C1CCCN(C(=O)Nc2ccc(F)cc2)C1 (stereo not given) | 0.9 | 0.1 | . | . | .
CCC(C)(C)C(=O)O[C@H]1C[C@@H](C)C=C2C=C[C@H](C)[C@H](CC[C@@H]3C[C@@H](O)CC(=O)O3)[C@H]21 | 0.2 | 4.9 | . | . | .
COc1cc(C(=O)NCc2nnc(SCC(=O)Nc3nc4ccccc4s3)o2)cc(OC)c1OC | -1.6 | 6.0 | 65.1% | -12.9 | 16.0
CC(/C=C/c1ccc2c(c1)OCO2)=N/NC(=O)c1ccncc1 | 99.1 | -0.4 | ? | . | .
COc1ccccc1/C=C/CN1CCNC(=O)C1CC(=O)NCCc1cnccn1 (stereo not given) | -6.0 | 1.8 | . | . | .
N#C/C(=C\C=C\c1ccccc1)c1nc(-c2ccc(Cl)cc2)cs1 | 73.5 | -4.1 | 15.1% | . | .
COc1ccc2ccccc2c1/C=N/NC(=O)CC1(C)OCCCO1 | 1.4 | -1.1 | -11.3% | -4.6 | -26.7
C/C=C(\C)C(=O)Nc1cccc(C2=NOC3(C2)C[C@H](C(N)=O)N(C(=O)C(c2ccccc2)c2ccccc2)C3)c1 (stereo not given in full) | 4.0 | 2.8 | 3.3% | . | .
CCOC(=O)c1sc2ncnc(NCc3ccco3)c2c1C | 6.0 | 0.8 | ? | 13.2 | -11.8
C/C(=N\Nc1ccc([N+](=O)[O-])cc1[N+](=O)[O-])c1cc2c(ccc3ccccc32)oc1=O | -0.3 | -1.8 | -1.3% | -1.8 | .
N#Cc1ccc(CN2CCN(C(=O)CC(NC(=O)c3ccccc3)c3ccccc3)CC2)cc1 (stereo not given) | 0.3 | 0.5 | . | . | .
Cc1ccc(CNC(=O)[C@@H](NC(=O)C2CCN(C(=O)[C@@H](N)CC(C)C)CC2)C(C)C)cc1 | 4.7 | 2.5 | . | . | .
CCN1C(=O)C(C(=O)NC(C)c2ccccc2)C2CC1(C)Oc1ccccc12 (stereo not given) | 0.8 | 2.5 | 5.7% | -9.5 | -15.0
COc1ccc(NS(=O)(=O)c2ccc3nc(COc4ccc(Cl)c(C)c4)[nH]c3c2)cc1 | 2.2 | 0.0 | 13.1% | 12.3 | -25.3
Cc1ccccc1N(C(=O)CS(=O)CC(=O)Nc1ccc(F)cc1)C(C)C(=O)NC(C)(C)C (stereo not given) | -4.7 | -0.3 | . | . | .
O=C(O)c1ccc(-n2c(-c3cc(C4CC4)[nH]n3)n[nH]c2=S)cc1 | 2.6 | -1.9 | -4.8% | . | .
O=c1cc(-c2ccccc2)oc2ccc(O)cc12 | 92.6 | 0.5 | 56.4% | . | .
O=C(COC(=O)c1cccc(S(=O)(=O)NCc2ccccc2)c1)Nc1ccccc1OC(F)F | -7.0 | 1.0 | . | -2.9 | -4.7
C=CCOn1c(-n2nc(C)cc2C)nc2ccccc2c1=O | -4.8 | 1.5 | . | . | .
CC(C)COc1ccc(C(=O)Nc2scc(-c3ccc(Cl)cc3Cl)c2C(N)=O)cc1 | 7.5 | 2.6 | . | -4.3 | -37.6
O=C(COC(=O)C(Cc1ccccc1)NC(=O)c1ccc(Cl)cc1)c1ccc(Cl)cc1 (stereo not given) | 4.8 | 7.4 | -4.9% | -4.4 | -12.9
Cc1ccc(NC(=O)COC(=O)CSC(=S)N2CCOCC2)cc1 | 0.1 | 3.4 | 1.9% | 20.7 | .
O=C(CSc1nc2ccccc2[nH]1)Nc1nc(-c2ccc(Br)cc2)cs1 | -0.1 | 4.3 | ? | 6.7 | -5.8
CCc1nnc(NC(=O)c2ccc(S(=O)(=O)N(CCOC)CCOC)cc2)o1 | 14.8 | -1.9 | -7.9% | 0.6 | -27.2
COc1ccc(CCNc2oc(COc3ccccc3)nc2C#N)cc1 | 10.2 | 6.6 | . | -8.2 | 1.3
COc1cc(OC)cc(C(=O)N(Cc2cc3cc(C)ccc3[nH]c2=O)C(C)C)c1 | 2.3 | 1.7 | -10.8% | 3.2 | -32.3
COc1ccc(OC)c(CNC(=O)C2CCCN(c3ncnc4c3nc3n4CCCCC3)C2)c1 (stereo not given) | 3.9 | 3.5 | . | . | .
Cc1ccc(N=Nc2c(N)n(-c3ccccc3)[nH]c2=O)cc1 | 7.5 | 4.0 | -4.8% | -19.5 | -16.1
O=C(Nc1nc2ccc([N+](=O)[O-])cc2s1)C1CCCO1 (stereo not given) | 5.6 | 2.5 | -2.8% | -4.5 | .
COc1ccc(CN=C(Nc2ccccc2)SC2CC(=O)N(C)C2=O)cc1 (stereo not given) | 5.6 | 0.0 | 7.3% | -3.6 | -22.4
Cc1[nH]c(=O)[nH]c1CN1CCCCC1 | . | 1.1 | -5.2% | 7.3 | -44.1
CCN1CCN(C(=O)C(NS(=O)(=O)c2ccc3nc(C)sc3c2)C(C)C)CC1 (stereo not given) | 0.4 | -0.5 | -13.9% | -0.8 | -41.6 | Arbovirus anti repeat=0.8
CCCCN=C1N/C(=C\c2ccco2)C(=O)N1c1ccccc1 | -4.9 | 2.8 | -5.3% | 5.4 | -7.1
Cc1ccc(S(=O)(=O)N2CCN(C(=O)CCc3nc4ccccc4c(=O)[nH]3)CC2)c(C)c1 | 1.2 | 2.3 | . | . | .
NS(=O)(=O)OCC1CCCCC1 | -8.0 | -0.4 | . | . | .
CN(CCO)C(=O)c1ccc(-c2nn(C)c(=O)c3ccccc23)cc1 | -2.5 | 1.4 | -4.0% | -2.3 | .
CCc1nc2c(s1)CCc1onc(-c3ccc(Cl)cc3)c1-2 | 2.1 | 0.9 | . | . | .
COc1ccc(S(=O)(=O)N2CC=C(C(=O)NC3CCCC3)CC2)cc1 | 8.7 | 1.1 | . | . | .
COc1ccccc1C(=O)Nc1c2c(nn1-c1ccc(Cl)cc1)CS(=O)(=O)C2 | 3.2 | 3.6 | . | . | .
CC(=O)N1c2ccc(S(=O)(=O)N(C)Cc3ccco3)cc2CC1C (stereo not given) | 5.3 | 0.6 | . | . | .
CC(=O)Nc1cc(C(=O)OCc2cccc([N+](=O)[O-])c2)ccc1C | 5.5 | -0.6 | 4.8% | 0.2 | .
COCC(=O)Nc1cccc(C(F)(F)F)c1 | -3.5 | . | -8.9% | 2.0 | -5.6
COC(=O)CN1C(=S)N(c2ccc(F)cc2)C(=O)C1CC(=O)Nc1ccc(F)cc1 (stereo not given) | -4.2 | . | 3.1% | . | .
CCOC(=O)C1CCN(S(=O)(=O)c2cccc(-c3cn4cc(C)ccc4n3)c2)CC1 | -1.6 | 2.6 | 3.3% | 7.9 | -11.3
O=C(Cc1ccc(N2CCNC2=O)cc1)N1CCCC(Nc2cccc(F)c2)C1 (stereo not given) | -6.0 | 2.4 | . | . | .
Cc1ccccc1C(=O)NC(=S)NCc1ccccc1 | 1.7 | 7.6 | . | . | .
O=C(COc1ccccc1[N+](=O)[O-])N(Cc1ccco1)C1CCS(=O)(=O)C1 (stereo not given) | 4.3 | 1.2 | . | . | .
COc1cc(NS(=O)(=O)c2ccc(NC(=O)/C(=C\c3ccccc3OC)NC(=O)c3ccccc3)cc2)nc(OC)n1 | 10.4 | -2.9 | -6.9% | 12.4 | -27.1
O=C(Nc1cccc(F)c1)NC1CCCCCCC1 | 99.8 | 3.9 | . | . | .
CCN(CC(=O)N1CCc2ccccc2C1)S(=O)(=O)c1ccc2ccccc2c1 | ? | 8.1 | -4.5% | -4.3 | 7.8
Next part
SMILES | Mtb bLac sens | RecA intein inh | Mtb growth | Arbovirus anti | YopH PTP inh | others
CC1Cc2ccccc2N1c1ncnc(N)c1[N+](=O)[O-] (stereo not given) | 9.2 | 2.8 | 0.4% | 8.4 | .
CCOC(=O)N1CCc2c(sc(N)c2C#N)C1 | -6.8 | 3.1 | 0.2% | . | .
CCCCn1c(CCNC(=O)c2cccs2)nc2ccccc21 | 6.1 | -11.0 | -7.4% | 0.8 | -15.0
O=C(Nc1cccc2ccccc12)NC(Cc1ccccc1)C(=O)O (stereo not given) | -2.5 | -1.2 | . | . | .
COc1cccc(C2=NOC(C(=O)Nc3cccnc3Cl)C2)c1 (stereo not given) | -3.5 | . | 0.2% | -1.3 | .
CN(C)c1nc2sc3c(c2c(=O)n1C)CC(C)(C)OC3 | -3.5 | -1.5 | -3.0% | 2.5 | -53.3
Cc1ccc(-n2c(C)cc(/C=N/NC(=O)CN(c3ccc(C)cc3C)S(C)(=O)=O)c2C)cc1 | 7.7 | 5.2 | 2.4% | 8.4 | -1.5
c1ccc(CCC2=NCCn3cccc32)cc1 | -0.5 | -4.0 | -0.9% | 6.4 | -21.9
O=C(Cn1c(=O)c2c(ncn2Cc2ccccc2)n(Cc2ccccc2)c1=O)NC1CC1 | 0.3 | 1.0 | -9.8% | -8.7 | -52.7
CCOc1ccccc1NC(=O)C1CC2CCCC(C1)C2=O (stereo not given) | -3.7 | 2.0 | -1.7% | -2.4 | -22.9

Among those listed so far, 5 have a nitro group on carbon:
SMILES | Mtb bLac sens | RecA intein inh | Mtb growth | Arbovirus anti | YopH PTP inh | others
C/C(=N\Nc1ccc([N+](=O)[O-])cc1[N+](=O)[O-])c1cc2c(ccc3ccccc32)oc1=O | -0.3 | -1.8 | -1.3% | -1.8 | .
O=C(Nc1nc2ccc([N+](=O)[O-])cc2s1)C1CCCO1 (stereo not given) | 5.6 | 2.5 | -2.8% | -4.5 | .
CC(=O)Nc1cc(C(=O)OCc2cccc([N+](=O)[O-])c2)ccc1C | 5.5 | -0.6 | 4.8% | 0.2 | .
O=C(COc1ccccc1[N+](=O)[O-])N(Cc1ccco1)C1CCS(=O)(=O)C1 (stereo not given) | 4.3 | 1.2 | . | . | .
CC1Cc2ccccc2N1c1ncnc(N)c1[N+](=O)[O-] (stereo not given) | 9.2 | 2.8 | 0.4% | 8.4 | .

Next structures
SMILES | Mtb bLac sens | RecA intein inh | Mtb growth | Arbovirus anti | YopH PTP inh | others
CCC(C)Nc1nc(N)c([N+](=O)[O-])c(Nc2cc(OC)ccc2OC)n1 (stereo not given) | 87.1 | 1.9 | 16.1% | . | .
COc1ccccc1NC(=O)c1c(O)c2ccccc2[nH]c1=O | 5.9 | -2.0 | . | . | .
CC1=CC(=O)C2=C(C)CC[C@@H]3[C@H](OC(=O)[C@H]3C)[C@@H]12 | -2.6 | -7.5 | -10.2% | . | .
COCCNC(=S)N(CCc1c(C)[nH]c2ccc(C)cc12)Cc1cccnc1 | -4.5 | -0.4 | . | . | .
COc1ccccc1NC(C)=[N+](C)CCNS(=O)(=O)c1ccc(Cl)cc1 | -2.5 | 1.4 | . | . | .
CC(C)C(c1nnnn1Cc1ccco1)N1CCN(c2cccc(Cl)c2)CC1 (stereo not given) | 7.7 | 13.6 | . | -17.0 | -32.3
CC1=CC(C)(C)N2C(=O)C(=Nc3ccc(O)cc3)c3cccc1c32 | 17.9 | 39.1* | 3.0% | . | .

The list is partial. The share of hits here may be higher or lower than overall.
